Assay outcomes: PubChem, National Center for Advancing Translational Sciences (NCATS)
TRPML1 inh – human mucolipin-1 channel inhibition | TRPML1-inducible cells, Ca2+ dye fluorescence, FDSS; hits give low values; inhibition of EC80 agonist-evoked calcium signal | activity change, negative = inhibition, % (no concentration beside the values) | 0.02% of 390,000 active | Q9GZU1; in the data active means activity change below about -50%; inconclusive means about -30% to -50%; inactive means above about -30%;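 also: stimulus is agonist 54-4 at its EC80 concentration; % is scaled to controls: 0 for no effect and ±100 for the full control effect; compound concentration not given in the record; the text of the record puts the active cut at -80%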
Target sequence (Q9GZU1 whole entry, looked up): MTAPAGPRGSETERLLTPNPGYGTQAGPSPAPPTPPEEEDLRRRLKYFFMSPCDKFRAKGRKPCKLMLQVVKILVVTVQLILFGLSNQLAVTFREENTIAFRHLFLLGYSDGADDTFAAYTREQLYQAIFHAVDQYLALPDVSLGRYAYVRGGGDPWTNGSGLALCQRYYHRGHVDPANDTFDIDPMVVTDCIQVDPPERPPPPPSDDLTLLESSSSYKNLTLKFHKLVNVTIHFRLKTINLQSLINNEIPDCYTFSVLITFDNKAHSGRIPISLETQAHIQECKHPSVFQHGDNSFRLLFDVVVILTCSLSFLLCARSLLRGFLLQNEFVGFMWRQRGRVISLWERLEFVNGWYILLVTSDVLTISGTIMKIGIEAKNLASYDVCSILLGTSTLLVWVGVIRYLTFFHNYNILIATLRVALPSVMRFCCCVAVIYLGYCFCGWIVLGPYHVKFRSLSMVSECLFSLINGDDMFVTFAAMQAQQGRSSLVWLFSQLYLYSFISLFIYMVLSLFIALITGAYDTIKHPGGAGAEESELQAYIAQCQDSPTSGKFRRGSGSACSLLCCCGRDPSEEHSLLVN
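Calcium fluorescence in TRPML1-DL cells induced overnight with Tet: a 110 s read after compound pin addition, then a 110 s antagonist read after challenge with 54-4 at 4 uM final (EC80).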
Menin-MLL FL inh – inhibitors of human menin-MLL interaction, wild-type MLL peptide. Fluorescence polarization, fluorescein-MLL peptide displacement from menin. FP activity change, % at 61.4 µM. 290,000 tested, under 10 active; inconclusive = falling polarisation curve, or a change in total fluorescence; inactive = total fluorescence flat and polarisation flat or rising; no compound was filed as active; the % refers to the polarisation; negative = inhibition;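 also: % of control where 0% means no effect; inhibitors lower the polarisation; unlabelled MLL peptide was the positive control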
ClpP mod – qHTS Assay for Activators of ClpP; ATP-dependent Clp protease proteolytic subunit (Bacillus subtilis (strain 168)), P80244; purified B. subtilis ClpP, FRET peptide cleavage, 20 min; Potency, µM (series often up to 57.5 µM), without a hit: at the top dose activity change, negative = active; 1.9% of 340,000 active; active = well fitted falling curve with a large enough effect; inconclusive = small, poorly fitted or top-dose-only effect; inactive = no such curve, though single readings can be large or run the other way; also: potency is read from the fitted curve at half-maximal effect; the source files actives as falling curves though it sought activators and does not explain the sign; nearly all actives have a fitted effect of over 65% in size; many hits overshoot -100%
Target sequence (P80244 whole entry, looked up): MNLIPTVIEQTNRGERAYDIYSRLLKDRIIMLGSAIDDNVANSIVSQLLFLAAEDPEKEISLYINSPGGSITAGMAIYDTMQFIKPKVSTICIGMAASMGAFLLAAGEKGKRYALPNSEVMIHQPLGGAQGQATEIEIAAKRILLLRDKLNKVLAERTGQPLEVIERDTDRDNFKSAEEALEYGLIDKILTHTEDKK
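Buffer: 100 mM Tris/HCl pH8, 100 mM KCl, 0.05% low protease BSA, 2.5% glycerol, 0.01% Tween-20. ClpP 10 microg/mL final; 20 min RT; delta FRET normalized to ADEP and DMSO controls.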
gsp antag – antagonizes gsp, the McCune-Albright syndrome mutation. Potency, µM (series often up to 76.9 µM), without a hit: top-dose activity change, negative = inhibition, actives largely listed as inhibitors. gsp-mutant cells, cAMP HTRF, 30 min; control for the full effect not named in the record. 0.4% of 340,000 active. AID 624288; active = falling curve of any shape with a large fitted effect; inconclusive = falling curve, mostly with a smaller effect; inactive = flat or rising curve; cell line not stated here;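 also: intracellular cAMP measured with PDE inhibitor Ro 20-1724 present during compound exposure; potency is read from the fitted curve at half-maximal effect; % is scaled to controls: 0 for no effect and ±100 for the full control effect; nearly all actives have a fitted effect of over 65% in size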
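G418-selected cells were plated in DMEM/10% FBS for 16-24 h at 37C, then treated with compounds plus the PDE inhibitor […] (300 uM solution added) for 30 min at 37C. Intracellular cAMP was measured by HTRF after 30 min lysis at room temperature.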
TRPML1 ag – activates the human TRPML1 channel; AID 624414; activation, % (concentration not given with the values); 0.12% of 410,000 active; TRPML1-expressing cells, Ca2+ dye fluorescence, FDSS; host cell line not named in the record; reference of the full effect not given here; Q9GZU1; in the data active = activation above about 50%; inconclusive = about 30% to 50%; inactive = below about 30%; also: 0% is about no effect; the text of the record puts the active cut at 80%
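In this qHTS format, compounds were pin-transferred onto Ca8-dye-loaded TRPML1-DL cells induced with Tet overnight, and intracellular Ca2+ fluorescence was recorded kinetically for 110 s after a 10 s baseline. A subsequent 4uM final 54-4 (EC80) addition followed by a second 110 s read served as the antagonist phase.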
gsp agonist – agonists of gsp mutant (McCune-Albright syndrome); 0.13% of 340,000 active; Potency, µM (titrated, usually from 76.9 µM), without a hit: top-dose activation (cAMP increase), hits mostly activators; AID 624287; gsp mutant cells, cAMP HTRF, 30 min; control for the full effect not named in the record; active = well fitted activation curve with a large enough effect; inconclusive = small, poorly fitted or top-dose-only effect, or another doubt; inactive = no such curve, though single readings can be large or run the other way; cell line not stated here;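 also: phosphodiesterase inhibitor Ro 20-1724 added with compounds to block cAMP breakdown; potency is read from the fitted curve at half-maximal effect; nearly all actives have a fitted effect of over 60% in size; about a fifth of the inactives were tested at one dose only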
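Cells in DMEM/10% FBS with G418 were pretreated with compounds in DMSO plus […] (300 uM stock) for 30 min at 37C. cAMP was measured by HTRF (cAMP-d2 plus anti-cAMP antibody-K) after 30 min at room temperature.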
* hit, by the source's call; ? = inconclusive; / = not tested or not shown; & = joins results of further samples; [ ] = remark or other dose.

SMILES	TRPML1 inh	Menin-MLL FL inh	ClpP mod	gsp antag	TRPML1 ag	gsp agonist
COc1cccc(C2C(C(=O)c3ccc(C)o3)=C(O)C(=O)N2CCN2CCOCC2)c1 (centres undefined)	7	/	0.4%	12%	0.6	?
Cc1ccc(CSc2nnc(-c3ccco3)n2N)cc1	2	1.3	-0.2%	13%	-0.4	7%
CCC(=O)Nc1cccc(-c2nc3ncccc3o2)c1C	8	3.7	3.9%	-6%	0.6	28%
O=C(N/N=C/c1cn(-c2cccs2)nc1-c1ccccc1)c1ccc(O)cc1	-7	9.8	-17%	?	1.2	15%
CCn1c(=O)n(CCc2ccccc2)c(=O)c2c3c(sc21)CCCC3	21	1.9	-4.5%	-16%	0.4	-1%
O=C(c1cccnc1)N1CCN(S(=O)(=O)c2cccs2)CC1	36	-2.0	-0.7%	9%	1.5	9%
CCOc1ccc(C(=O)NCC2CCCO2)cc1OCC (centres undefined)	11	-0.1	-9.3%	-2%	0.8	-5%
CC(=O)Nc1nnc(SCC(=O)Nc2nc(C)cs2)s1	?	/	-0.5%	-4%	0.4	?
CCOC(=O)c1c(C)oc2ccc(NS(=O)(=O)c3cccs3)cc12	31	4.0	0.6%	7%	0.9	-1%
COc1ccc(C(CC(=O)N2CCCC(C)C2)c2c(O)cc(OC)cc2OC)cc1 (centres undefined)	19&-16	-3.7&1.7	?	-4%	1.7&2.0	/
Cc1ccc(NC(=O)CN(C)C(=O)COc2cc(F)ccc2[N+](=O)[O-])cc1	4	-0.4	/	/	-0.3	1%[15.4 µM]
CN1CCN(c2ccc(NC(=O)c3ccc4c(c3)OCCO4)cc2)CC1	-9	2.7	/	-7%	-0.3	-24%[15.4 µM]
CCC(=O)Nc1ccc2c(c1)C(=O)N(C1CCCCC1)C2=O	-4	-1.7	22µM*	-6%	0.0	-50%[inhibitor]
O=C1CSC(c2cn(-c3ccccc3)nc2-c2cc3ccccc3oc2=O)N1Cc1cccnc1 (centres undefined)	14	-1.1	?	-13%	2.5	25%
Cc1cc(C)n(CCCNC(=O)Cn2nnnc2CN2C[C@@H](C)O[C@@H](C)C2)n1	0	-0.8	0.3%	10%	-0.4	-16%
COc1ccc(N=C2NC(=O)/C(=C\C=C\c3ccco3)S2)cc1	32	27	/	?	1.2	8%[15.4 µM]
CC(C)CCNC(=O)Nc1ccc2c(c1)N(Cc1ccccc1)C(=O)c1ccccc1S2	1	/	-1.5%	/	0.3	/
Cc1cc(NS(=O)(=O)c2ccc(NC(=O)NC3CCCCC3)cc2)no1	-4	2.3	-1.1%	1%	0.7	?
O=C(COC(=O)/C=C/c1ccccc1)NNC(=O)c1ccccc1F	59	/	0.9%	6%	2.6	9%[15.4 µM]
CCn1nnc(NC(=O)c2c(OC)cccc2OC)n1	3	2.6	?	2%	0.4	4%[15.4 µM]
Cc1ccccc1OC(=O)CSc1nnc(-c2ccc(F)cc2)o1	29	/	1.4%	/	4.9	/
COC(C[C@H]1O[C@H]1[C@@H](O)[C@@H](C)OCc1ccccc1)OC	-9	-1.2	1.2%	7%	-0.1	/
Fc1cccc(Nc2ncnc3sc4c(c23)CCC4)c1	2	6.4	-1.3%	7%	0.6	23%
CC(C)(C)OC(=O)N(Cc1ccccc1)Cc1cccc(OCc2cccc(NC(=O)c3ccccc3)c2)c1	0	/	-20%	-3%	0.6	/
Cc1nc(NS(=O)(=O)c2ccccc2)sc1C(=O)NN	2	0.6	/	-8%	-0.8	-1%[15.4 µM]
O=C(Nc1ccccc1F)c1ccccc1-c1ccc(C(F)(F)F)cc1	31	4.3	0.6%	0%	2.3	0%
COc1cc(OC)cc(C(=O)N[C@H](C(=O)Nc2cc(F)ccc2C)C(C)C)c1	16	-8.0	/	-6%	0.6	-21%
O=C(Nc1cccc(Cl)c1)C1CCCN(c2nn3cc(-c4ccc(F)cc4)nc3s2)C1 (centres undefined)	-11	/	-2.7%	/	1.0	/
CCN1CCN(C(=O)c2ccc(N3CC4CC(C3)c3cccc(=O)n3C4)c(NC(=O)c3cc(OC)cc(OC)c3)c2)CC1 (centres undefined)	26	-4.6	0.9%	4%	0.4	?
CCCCCc1ccc(-c2ccc(/C=C/C(N)=O)cc2)nc1	10	4.6	-13%	3%	-0.5	-5%
Cc1nc2ccccn2c1CN(C)C(=O)C1CCC(=O)N(CCc2cccc(F)c2)C1 (centres undefined)	7	/	3.7%	2%	-0.6	?
CC(=O)CC(=O)Nc1ccc(Cl)cn1	-13	11	/	0%	-0.1	19%[15.4 µM]
CCn1cc(CNC(=O)/C=C/c2cnn(C)c2)c(C)n1	5	-2.6	2.1%	21%	0.1	29%
O=Cc1cn(-c2ccccc2)nc1-c1cccc([N+](=O)[O-])c1	0	/	0.2%	/	-1.1	-54%[inhibitor]
COc1ccc(SCc2cc(=O)c3cc(Cl)ccc3[nH]2)cc1	-10	/	-0.9%	/	2.4	/
COc1cccc(CNCc2ccccc2Br)c1OC	4	-7.4	-1.9%	4%	0.6	21%[15.4 µM]
Cc1ccccc1C(=O)NNC(=S)Nc1cccc(C(F)(F)F)c1	-11	/	1.0%	-3%	-0.7	-2%[15.4 µM]
NC(=O)c1ccc(N2CCN(c3ccc(O)cc3)CC2)c([N+](=O)[O-])c1	-25	3.9	/	-7%	0.7	-1%[15.4 µM]
COC(=O)c1c(-c2ccc(Cl)cc2)noc1N1CCN(c2cccc(C(F)(F)F)c2)CC1	-18	/	-3.9%	/	-0.3	/
Nc1nc(COC(=O)C2CC(=O)N(CCc3ccccc3)C2)nc(Nc2ccccc2)n1 (centres undefined)	-21	/	0.1%	-5%	2.4	30%
CC1(C)CC(NC(=O)c2cc(S(=O)(=O)N3CCOCC3)c(Cl)cc2Cl)CC(C)(C)N1	34	/	-1.5%	6%	0.6	-7%[15.4 µM]
CCOC(=O)[C@H](C)N1[C@H](C)[C@H](c2ccccc2)Oc2ccc(Cl)cc2S1(=O)=O	-3	/	-2.1%	-5%	0.1	/
Cc1onc(-c2ccccc2)c1C(=O)OCC(=O)N(CC(C)C)c1c(N)n(Cc2ccccc2)c(=O)[nH]c1=O	-7	/	1.0%	-14%	-1.1	-18%
COc1cc(CN2CCC(C(=O)NC3CCCC3)CC2)cc(Br)c1O	-4	4.9	5.9%	5%	-0.6	-20%
CCN(CC)c1ccc(NC(=O)COC(=O)CCC(=O)c2ccc(F)cc2)cc1	-4	2.9	-0.4%	-9%	-0.7	6%
CCOC(=O)C1=C(CS(=O)(=O)c2ccc(F)c(C)c2)NC(=O)NC1c1ccc(F)c(F)c1 (centres undefined)	5	/	-0.7%	/	0.4	/
COc1ccc(CC(=O)Nc2ccc(C(=O)O)cc2NC(=O)Cc2ccc(OC)cc2)cc1	-2	1.4	-0.1%	12%	-0.4	-7%
Cc1nc2c(C(=O)NCCc3ccccc3Cl)c[nH]n2c(=O)c1Cl	8	-0.4	?	-12%	1.8	26%
O=c1[nH]c(=S)[nH]c2c1C(c1ccc(F)cc1)OC(C1CCCCC1)C2 (centres undefined)	8	/	-1.3%	/	2.3	/
Cc1c(NC(C)c2cc(Cl)ccc2O)c(=O)n(-c2ccccc2)n1C (centres undefined)	16	-1.3	-2.2%	-1%	-0.1	7%
OC1CCN(Cc2ccc(OCc3ccccc3)cc2)CC1	16	-0.6	/	10%	1.0	-7%
COC(=O)c1sccc1NC(=O)Nc1ccc(Cl)c(Cl)c1	8	4.4	?	-4%	-0.1	-22%
CN1CCn2cnc(C(=O)NCc3ccccc3)c2C1=O	1	/	-0.6%	/	-0.7	-32%[inhibitor]
COCCn1c(C)cc(O)c(C(c2ccccc2OC)N2CCCCC2)c1=O (centres undefined)	-2	/	-4.0%	/	0.9	/
Cc1ccc(C)c(NC(=O)CCC(=O)NN=C2CCCC2)c1	37	/	0.9%	8%	-0.2	-3%
CC(=O)Nc1ccc(NC(=O)CSc2nnc(-c3cccs3)n2N)cc1	1	/	/	-2%	-0.2	18%[15.4 µM]
COc1cccc(OCC(O)CNC(=O)c2oc3ccc(C)cc3c2C)c1 (centres undefined)	-11	?	-0.2%	-19%	1.3	17%[15.4 µM]
Cc1c(NC(=O)CSc2nc(-c3ccco3)cc(C(F)(F)F)n2)c(=O)n(-c2ccccc2)n1C	-2	4.2	-0.9%	4%	-0.6	15%
O=C(O)c1ccnc(Cl)c1	11	0.0	-0.3%	1%	0.7	?
COc1ccc(S(=O)(=O)Nc2cccc3c2O[C@H](CN(C)C(=O)Nc2c(C)noc2C)[C@@H](C)CN([C@H](C)CO)C3=O)cc1	20	/	-2.1%	9%	0.1	-3%

(further entries)
SMILES	TRPML1 inh	Menin-MLL FL inh	ClpP mod	gsp antag	TRPML1 ag	gsp agonist
CCN(CC(=O)Nc1cc(Cl)ccc1Cl)C(=O)c1ccc(-n2cccn2)cc1	-10	/	2.1%	-5%	-0.1	7%
CC1CC1C(=O)OCC(=O)Nc1cccc(F)c1 (centres undefined)	-24	/	0.1%	5%	-0.4	2%
Cc1nc2ccc(NC(=O)Cc3ccsc3)cc2s1	6	4.7	-5.0%	5%[15.4 µM]	1.2	2%
CCN(CC)CCCNC1=C(Cl)C(=O)c2ccccc2C1=O	-3	-1.6	/	9%	1.4	5%[15.4 µM]
Cc1ccc(S(=O)(=O)NC2=C(N3CCN(c4ccccc4F)CC3)C(=O)c3ccccc3C2=O)cc1	-15&-4	-13	-5.9%&1.6%	-16%&3%	0.3&-0.6	-6%&0%
CCOC(=O)CCNCc1ccc(F)cc1	6	-2.3	18µM*	2%	0.8	-11%[15.4 µM]
Cn1nc(C(F)(F)F)c(-c2cccc(C(F)(F)F)c2)c1NC(=O)c1ccco1	3	2.4	1.4%	6%	5.6	-19%
COc1ccc2c(c1)OC1(C)CC2C(C(=O)c2ccccc2OC)C(=O)N1 (centres undefined)	-3	1.0	0.0%	7%	-0.4	?
COc1ccccc1C(=O)N/C(=C/c1ccc(Br)cc1)C(=O)N1CCOCC1	-16	/	-0.3%	/	-1.0	-7%
CCOCCOC(=O)c1ccc(-n2cncn2)nc1	6	2.1	-3.9%	-2%	-0.3	-97%[inhibitor]
CCOC(=O)C(=O)/C(C#N)=C/Nc1ccc(F)cc1	6	0.3	-12%	5%	-0.8	12%
Cc1cccc(NC(=O)CN(C)C(=O)c2ccc3ccccc3n2)c1C	9	/	2.5%	9%	-0.9	15%
Cc1ccc(S(=O)(=O)Nc2cc(C)c(O)cc2C)cc1	9	-2.5	/	6%	0.2	8%
Cn1c(=O)c(S(=O)C2CCCCC2)c(O)c2ccccc21 (centres undefined)	17	/	-5.1%	3%	-0.5	-1%
CN(C(=O)COC(=O)/C=C/c1ccc2ccccc2n1)c1c(N)n(Cc2ccccc2)c(=O)[nH]c1=O	21	/	3.0%	10%	0.4	-47%[inhibitor]

Random draw from the library; about 2.1% have a hit in one of these screens.
